Screens deposited in PubChem by National Center for Advancing Translational Sciences (NCATS).
gsp agonist – gsp mutant agonism; Potency, µM (top dose mostly 76.9 µM), for inactives: top-dose activation (cAMP increase), usual class: activators; gsp mutant cells, cAMP HTRF, 30 min; control for the full effect not named in the record; hit rate 0.13% among 340,000; active = well fitted activation curve with a large enough effect; inconclusive = small, poorly fitted or top-dose-only effect, or another doubt; inactive = no such curve, though single readings can be large or run the other way; cell line not stated here;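 note: phosphodiesterase inhibitor Ro 20-1724 added with compounds to block cAMP breakdown; potency is the fitted concentration of half-maximal effect; nearly all actives have a fitted effect of over 60% in size; about a fifth of the inactives were tested at one dose only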
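Cells in DMEM/10% FBS with G418 were pretreated with compounds in DMSO plus […] (300 uM stock) for 30 min at 37C. cAMP was measured by HTRF (cAMP-d2 plus anti-cAMP antibody-K) after 30 min at room temperature.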
ClpP mod – qHTS Assay for Activators of ClpP; Potency, µM (series often up to 57.5 µM), inactives show at the highest dose activity change, negative = active; purified B. subtilis ClpP, FRET peptide cleavage, 20 min; hit rate 1.9% among 340,000; ATP-dependent Clp protease proteolytic subunit (Bacillus subtilis (strain 168)), P80244; active = well fitted falling curve with a large enough effect; inconclusive = small, poorly fitted or top-dose-only effect; inactive = no such curve, though single readings can be large or run the other way; note: potency is the fitted concentration of half-maximal effect; the source files actives as falling curves though it sought activators and does not explain the sign; nearly all actives have a fitted effect of over 65% in size; many hits overshoot -100%
Target sequence (P80244 whole entry, looked up): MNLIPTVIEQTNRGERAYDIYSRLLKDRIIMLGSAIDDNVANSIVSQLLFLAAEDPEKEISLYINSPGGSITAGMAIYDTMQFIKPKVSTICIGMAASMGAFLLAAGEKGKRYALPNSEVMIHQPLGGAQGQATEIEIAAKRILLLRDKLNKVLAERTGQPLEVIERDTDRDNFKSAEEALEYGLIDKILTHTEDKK
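Purified B. subtilis ClpP, 10 microg/mL final in Tris/HCl pH8 with KCl, BSA, glycerol and Tween-20, cleaved an Abz/nitrotyrosine-quenched decapeptide. Fluorescence (ex 320, em 430) was read at 0 and 20 min at room temperature. Delta was normalized to 5.8 microM ADEP and DMSO/no-enzyme controls.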
Menin MLL FP FL – displaces fluorescein MLL peptide from human menin; Fluorescence polarization, fluorescein-MLL peptide displacement from menin; FP activity change, % at 61.4 µM; 290,000 tested, under 10 active; AID 1766; inconclusive = falling polarisation curve, or a change in total fluorescence; inactive = total fluorescence flat and polarisation flat or rising; no compound was filed as active; the % refers to the polarisation; negative = inhibition;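 note: % of control where 0% means no effect; inhibitors lower the polarisation; unlabelled MLL peptide was the positive control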
TRPML1 blocker – inhibitors of human TRPML1 channel. TRPML1-inducible cells, Ca2+ dye fluorescence, FDSS; stronger effect = lower value; inhibition of EC80 agonist-evoked calcium signal. activity change, negative = inhibition, % (no concentration beside the values). hit rate 0.02% among 390,000. AID 624415; in the data active means activity change below about -50%; inconclusive means about -30% to -50%; inactive means above about -30%;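 note: stimulus is agonist 54-4 at its EC80 concentration; % is set by controls: 0 for no effect and ±100 for the full control effect; compound concentration not given in the record; the text of the record puts the active cut at -80%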
Target sequence (Q9GZU1 whole entry, looked up): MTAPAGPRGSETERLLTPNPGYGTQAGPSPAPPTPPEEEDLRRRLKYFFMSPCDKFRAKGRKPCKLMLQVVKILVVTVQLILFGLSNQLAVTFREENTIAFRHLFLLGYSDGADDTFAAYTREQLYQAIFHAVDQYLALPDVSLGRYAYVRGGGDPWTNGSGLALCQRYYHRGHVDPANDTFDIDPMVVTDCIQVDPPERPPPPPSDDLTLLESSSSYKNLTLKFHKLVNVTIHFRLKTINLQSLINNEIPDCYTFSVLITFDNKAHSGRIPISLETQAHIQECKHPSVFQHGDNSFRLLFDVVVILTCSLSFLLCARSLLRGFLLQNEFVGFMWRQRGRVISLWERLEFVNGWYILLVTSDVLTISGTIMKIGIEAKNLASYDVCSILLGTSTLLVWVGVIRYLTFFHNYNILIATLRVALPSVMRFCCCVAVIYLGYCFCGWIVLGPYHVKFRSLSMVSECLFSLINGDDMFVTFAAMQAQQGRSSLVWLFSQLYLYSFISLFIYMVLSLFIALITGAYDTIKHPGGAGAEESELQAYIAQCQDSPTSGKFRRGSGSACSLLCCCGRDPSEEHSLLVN
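Tet-induced TRPML1-DL cells loaded with Ca8 no-wash calcium dye were read kinetically on FDSS. Compound addition was followed by EC80 agonist 54-4 (4 uM final); inhibition was read over 110 s.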
TRPML1 agonist – activates the human TRPML1 channel; Q9GZU1; TRPML1-expressing cells, Ca2+ dye fluorescence, FDSS; host cell line not named in the record; reference of the full effect not given here; activation, % (test concentration not listed); hit rate 0.12% among 410,000; AID 624414; in the data active = activation above about 50%; inconclusive = about 30% to 50%; inactive = below about 30%; note: 0% is about no effect; the text of the record puts the active cut at 80%
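Tetracycline-induced TRPML1-DL cells are seeded and incubated overnight before loading with a no-wash Ca2+ dye and quencher. Agonist activity is taken from the 110 s fluorescence read following compound pin-transfer on an FDSS, before EC80 54-4 challenge.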
gsp antagonist – antagonizes gsp, the McCune-Albright syndrome mutation; gsp-mutant cells, cAMP HTRF, 30 min; control for the full effect not named in the record; Potency, µM (doses to about 76.9 µM), inactives show at the highest dose activity change, negative = inhibition, actives largely listed as inhibitors; hit rate 0.4% among 340,000; AID 624288; active = falling curve of any shape with a large fitted effect; inconclusive = falling curve, mostly with a smaller effect; inactive = flat or rising curve; cell line not stated here;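 note: intracellular cAMP measured with PDE inhibitor Ro 20-1724 present during compound exposure; potency is the fitted concentration of half-maximal effect; % is set by controls: 0 for no effect and ±100 for the full control effect; nearly all actives have a fitted effect of over 65% in size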
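G418-selected cells were plated in DMEM/10% FBS for 16-24 h at 37C, then treated with compounds plus the PDE inhibitor […] (300 uM solution added) for 30 min at 37C. Intracellular cAMP was measured by HTRF after 30 min lysis at room temperature.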
Starred values were filed as active, the others as inactive; ? = inconclusive; . = not tested or not shown; [ ] = dose if it differs, or a comment.

SMILES | gsp agonist | ClpP mod | Menin MLL FP FL | TRPML1 blocker | TRPML1 agonist | gsp antagonist
O=C(C1CCCO1)N1CCN(C(=S)Nc2ccc(Cl)cc2Cl)CC1 (configuration not stated) | 20%[15.4 µM] | . | 2.6 | -3 | 0.6 | 7%
Cc1ccc(NC(=S)NC2CCN(Cc3ccccc3)CC2)cc1C | -35% | 0.7% | -1.7 | 10 | 0.7 | 12%
Cc1cc(C)cc(N2C(=O)CCN(Cc3ccccc3)C2=O)c1 | 2%[15.4 µM] | -0.9% | 4.6 | -2 | -0.5 | -9%
CCCCNS(=O)(=O)c1ccc(OCC(=O)OC)cc1 | -7% | 1.2% | 2.3 | -14 | 0.5 | ?
Cc1ccccc1C(OCC(O)CN1CCCCC1CCO)c1ccccc1 (configuration not stated) | -8% | -4.2% | -2.0 | -10 | -0.3 | 4%
Cc1ccc(S(=O)(=O)N2CCCC2C(=O)NC2=NCCS2)cc1 (configuration not stated) | 23% | -1.0% | 0.6 | 2 | -0.5 | 2%
CC(C)c1ccc(NC(=O)[C@H](NC(=O)[C@@H]2Cc3ccccc3CN2)c2ccccc2)cc1 | -16% | . | . | 6 | 0.2 | 0%
COc1cc(CNCCSc2nnnn2C)cc(OC)c1OC | 11% | 0.7% | -1.0 | 19 | 0.4 | 4%
COc1ccc2cc3cc(C(=O)N4CCN(Cc5ccc6c(c5)OCO6)CC4)oc3nc2c1 | 14% | 32µM* | -0.3 | -15 | 0.9 | ?
Cc1ccc(S(=O)(=O)N(C#N)c2nc(C)cc(C)n2)cc1 | 16% | -13% | 1.8 | -7 | -0.7 | 14%
OCCNc1nc(N2CCN(Cc3ccccc3)CC2)nc2ccccc12 | 11% | ? | 0.4 | -6 | 0.1 | -2%
O=C(NCc1ccc2c(c1)CCN2C(=O)c1ccncc1)c1cccc(F)c1 | . | -3.2% | . | -15 | -0.7 | .
Cc1cccc(C(=O)N/N=C/c2ccoc2)c1 | -29% | 1.5% | 2.2 | -27 | 1.2 | 0%
Cc1occc1-c1nnc(SCC(=O)Nc2ccccc2-c2ccccc2)n1C | 6% | 5.2% | 3.9 | 10 | -0.3 | -6%
O=C(c1n[nH]c2c1CCC2)N1CCCC(Nc2cccc(F)c2)C1 (configuration not stated) | -10% | -2.8% | 1.4 | 8 | 0.6 | 3%
Cc1cc(=O)oc2cc(OCC3CC(c4ccc(N(C)C)cc4)=NO3)ccc12 (configuration not stated) | -2% | ? | 0.7 | -2 | -0.9 | 0%
C=CCc1ccccc1Oc1cc(F)nc(N)n1 | 7% | . | -7.7 | -13 | 0.7 | 2%
COc1ccc(CCNC(=O)COC(=O)C2CC2C)cc1 (configuration not stated) | 3% | 1.1% | . | 25 | -0.4 | -5%
CC(=O)Nc1ccc(NC(=O)Cn2cc3c(n2)CCCC3)cc1 | -20% | 3.0% | 3.9 | -12 | -0.6 | -5%
Brc1ccc(-c2cn3c(n2)CCc2ccc4cccnc4c2-3)cc1 | -34%[inhibitor] | 28µM* | 20 | 0 | -1.0 | -4%
CCc1ccccc1NC(=O)CN1C(=O)c2ccccc2Sc2ncccc21 | . | -3.5% | . | -13 | -0.2 | .
CC(=O)NC(NC(=S)Nc1ccc(N=Nc2ccccc2)cc1)C(Cl)(Cl)Cl (configuration not stated) | -1% | 3.3% | -0.8 | -1 | 1.7 | -12%
CCC(=O)N(Cc1cc2cc(C)c(C)cc2[nH]c1=O)C1CCCCC1 | -23% | ? | 1.2 | 3 | 5.3 | 2%
CCOC(=O)CC(=O)Nc1ccccc1C(=O)O | ? | -28% | 0.0 | 10 | 1.4 | -19%
CCOc1ccc2nc(SCC(=O)Nc3cc4c(cc3C(C)=O)OCO4)[nH]c2c1 | -43%[inhibitor] | -2.6% | 1.8 | -6 | 2.8 | -7%
Cc1nnc(NC(=O)CCSc2ccccc2)s1 | 4% | -1.8% | 1.8 | -2 | 0.5 | 9%
O=C(NC1CCN(C(=O)Nc2cccc(F)c2)CC1)c1ccco1 | ? | -1.1% | -4.8 | -19 | 0.0 | 11%
CC1CCN(c2c(NCC3CCC(C(=O)NCCCc4ccccc4)CC3)c(=O)c2=O)CC1 (configuration not stated) | 4%[15.4 µM] | . | 4.7 | 41 | 1.6 | -13%
O=C(Nc1ccc(N=Nc2ccccc2)cc1)c1ccccc1Cl | -9% | 2.7% | -0.2 | 14 | 4.6 | -27%
O=C(c1ccco1)N1N=C(c2ccc(Br)cc2)CC1(O)C(F)(F)F (configuration not stated) | 14%[15.4 µM] | . | 1.9 | 15 | 3.1 | -15%
Cc1ccc(NC(=O)CSc2nncc3ccccc23)cc1 | 16% | . | -2.9 | 2 | 1.5 | -1%
NC1=NC2(CCCCC2)N(c2ccc(F)cc2)C(N)=N1 | -26% | -0.6% | 6.4 | -12 | 0.1 | -29%
Cc1ccn2c(=O)nc(SCC(=O)N3N=C(c4cccs4)CC3c3ccc(F)cc3)nc2c1 (configuration not stated) | -1% | -16% | . | 23 | 0.7 | 4%
CC(CN1CCOCC1)OC(=O)/C=C/c1ccccc1 (configuration not stated) | 0%[15.4 µM] | . | 0.8 | 24 | 1.4 | 6%
COc1cc([N+](=O)[O-])ccc1NC(=O)COC(=O)C1=NN(c2ccccc2)C(=O)CC1 | -12% | 1.8% | . | 11 | -0.9 | -6%
Cc1ccc(N2CC(C(=O)Nc3nnc(SCC(=O)Nc4cc(C)on4)s3)CC2=O)cc1 (configuration not stated) | 8%[15.4 µM] | -2.2% | 11 | -12 | 0.4 | 2%
O=C(O)c1cc2nc(C3CC3)cc(C(F)(F)F)n2n1 | -82%[inhibitor] | -0.1% | -5.6 | -6 | -0.9 | 9%
COc1ccc(CNC(=O)CN(C)S(=O)(=O)c2ccc(Cl)cc2)cc1 | 6% | -0.4% | 0.0 | -3 | 1.0 | ?
O=[N+]([O-])c1ccccc1C1Nc2cccc3cccc(c23)N1 | -2%[15.4 µM] | 0.8% | 4.0 | 2 | 0.4 | -10%
CC1CCN(c2nnc(N3CCC(C)CC3)c3ccccc23)CC1 | ? | 0.9% | -3.2 | 38 | 0.1 | 2%
O=C(O)c1ccc(CSc2nc3ccccc3[nH]2)cc1 | ? | 0.6% | -0.7 | 1 | 0.0 | ?
Nc1ccc(S(=O)(=O)NC(=O)c2ccccc2)cc1 | . | -1.3% | ? | -5 | 0.2 | -1%
COc1ccc2c(C(=O)CCl)c[nH]c2c1 | -4% | -5.0% | 9.3 | 20 | 0.9 | -13%
CCN1CCN(c2cc(C)c3cc(NC(=O)/C=C/c4cccc(Cl)c4)ccc3n2)CC1 | . | -11% | . | 6 | -0.3 | .
Cc1c(C(=O)O)sc2nc(/C=C/c3cccc(O)c3)[nH]c(=O)c12 | ? | . | 6.3 | 3 | 0.0 | -1%
COc1ccc(Cn2nnnc2C(c2cccs2)N2CCOCC2)cc1 (configuration not stated) | -64%[inhibitor] | -2.2% | -1.8 | 9 | -0.7 | 5%
CCN(CC)S(=O)(=O)c1cc(NC(=O)C(C)N2CCN(c3ccccn3)CC2)ccc1C (configuration not stated) | 22% | . | -1.6 | 19 | -0.9 | -13%
CCN(CC)S(=O)(=O)c1ccc(N2CCOCC2)c(NC(=O)c2[nH]c(C)c(C(C)=O)c2C)c1 | ? | -6.3% | . | -1 | 0.1 | -6%
N#C/C(=C\c1cccnc1)C(=O)Nc1ccccc1 | -15% | 0.6% | ? | -13 | 1.1 | 9%
CS(=O)(=O)c1ccc2nc(NC(=O)CCS(=O)(=O)c3ccccc3)sc2c1 | ? | . | 4.3 | 9 | -0.2 | -8%
C=CCN(CC=C)C(=O)C(=O)c1cc(C)n(-c2ccc([N+](=O)[O-])cc2)c1C | -34% | -0.8% | 1.3 | 12 | -0.4 | -7%
O=C(Cc1cccs1)NCc1ccco1 | 11% | -1.6% | -1.1 | -13 | 0.1 | -4%
O=C(O)/C=C/C(=O)NCc1cn(-c2ccccc2)nc1-c1cccc(Br)c1 | 7%[15.4 µM] | . | 1.7 | 16 | 2.1 | -3%
N/C(CC(=O)Nc1cc(C(F)(F)F)ccc1Cl)=N\O | ? | 1.0% | -1.0 | 3 | -0.6 | 8%
Cc1ccccc1NC(=O)NNC(=O)CCc1ccccc1 | 0% | -2.4% | 1.7 | 29 | 1.6 | -4%
Cc1nc(C)c(C(=O)Nc2ccccc2)s1 | 7% | 0.5% | 1.3 | 0 | -0.4 | 5%
Cn1ncc(Cl)c1C(=O)N1CCN(c2ccccc2)CC1 | ? | 1.2% | 0.6 | 21 | 0.1 | 5%
O=C(Nc1ccccc1C(=O)OCc1cc(=O)n2nc(C3CC3)sc2n1)c1cccc(F)c1 | . | -5.3% | . | -3 | -0.5 | .
Cc1ccc(NS(=O)(=O)c2ccc(-n3cccn3)cc2)c(C)c1 | -13% | -0.9% | . | -8 | -1.1 | -12%
COc1ccc(NC(=O)C2(C)CCCN(C(C)=O)C2)cc1F (configuration not stated) | . | 0.0% | . | 6 | -0.1 | .

Going on with the list.
SMILES | gsp agonist | ClpP mod | Menin MLL FP FL | TRPML1 blocker | TRPML1 agonist | gsp antagonist
Cc1csc(SCC(=O)Nc2ccccc2)n1 | 17% | . | 0.8 | 20 | 1.0 | 5%
Cc1ccc(CSc2ccc3nnc(CCNS(=O)(=O)c4ccc(C)cc4)n3n2)cc1 | . | -5.3% | . | 21 | 1.9 | .
COc1cc([N+](=O)[O-])ccc1NC(=O)CCCOc1cc(C)ccc1C | -4% | 1.6% | 3.4 | 46 | 0.0 | -8%
Cc1ccc2nc(N(CCN3CCOCC3)C(=O)CCS(=O)(=O)c3ccccc3)sc2c1 | 12%[15.4 µM] | -1.0% | . | -4 | 0.2 | -24%
COc1ccc(NC(=O)CSC2=Nc3ccccc3C3=NC(CCC(=O)NCCc4ccccc4)C(=O)N23)cc1 (configuration not stated) | . | -1.7% | . | 37 | 1.4 | .
CCOc1cc(/C=N/NC(=O)N/N=C/c2ccc(O)c(OCC)c2)ccc1O | -3%[15.4 µM] | -1.2% | . | -13 | 1.0 | -1%
CCOc1ccc(N(C)S(=O)(=O)c2csc(C(N)=O)c2)cc1 | -22% | . | -2.8 | 21 | 1.6 | 0%

An excerpt from above in order of formula weight, smallest number first:
SMILES | gsp agonist | ClpP mod | Menin MLL FP FL | TRPML1 blocker | TRPML1 agonist | gsp antagonist
Cc1csc(SCC(=O)Nc2ccccc2)n1 | 17% | . | 0.8 | 20 | 1.0 | 5%
CCOc1cc(/C=N/NC(=O)N/N=C/c2ccc(O)c(OCC)c2)ccc1O | -3%[15.4 µM] | -1.2% | . | -13 | 1.0 | -1%
Cc1ccc2nc(N(CCN3CCOCC3)C(=O)CCS(=O)(=O)c3ccccc3)sc2c1 | 12%[15.4 µM] | -1.0% | . | -4 | 0.2 | -24%

Outcome played no part in choosing rows, and some 2.1% of all compounds hit somewhere here.
